CSC inhib – cancer stem cell inhibition. AID 2717. inhibition, % at 7.5 µM. 1.1% of 300,000 active. cancer stem cell-like cells viability, luminescence;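 active = mean at 75% or more and at least half the replicates too; inconclusive = mean and replicates disagree; tested in HMLE shEcad cells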;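 also: 0% = median of negative and 100% = median of positive control wells; the first replicate is given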
HIV Env fusion – HIV envelope-mediated fusion inhibition; HeLa-JRFL Env/CEM21 cell fusion, luciferase; inhibition, % at 12.3 µM; 1.1% of 360,000 active;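 active = mean replicate inhibition score of at least 50 and every replicate individually at or above 50; inconclusive = only one of the two criteria met; inactive = mean below 50 and not all replicates reaching 50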;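 also: 0% = plate neutral controls and 100% = maraviroc near 300 nM; one replicate is shown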
Rce1 inh – blocks yeast Ras-converting enzyme; yeast membranes, quenched prenylated peptide cleavage fluorescence; 0.27% of 290,000 active; calls only; Q03530;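 active = fall in fluorescence gain of 50% or more versus controls, with final raw signal at or below 3038400; inconclusive = same 50% fall but final raw signal above 3038400; inactive = fall in fluorescence gain under 50%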;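 also: plate controls were neutral control wells for no effect and wells lacking membranes for full effect; tested at 10 µM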
Target sequence (Q03530 whole entry, looked up): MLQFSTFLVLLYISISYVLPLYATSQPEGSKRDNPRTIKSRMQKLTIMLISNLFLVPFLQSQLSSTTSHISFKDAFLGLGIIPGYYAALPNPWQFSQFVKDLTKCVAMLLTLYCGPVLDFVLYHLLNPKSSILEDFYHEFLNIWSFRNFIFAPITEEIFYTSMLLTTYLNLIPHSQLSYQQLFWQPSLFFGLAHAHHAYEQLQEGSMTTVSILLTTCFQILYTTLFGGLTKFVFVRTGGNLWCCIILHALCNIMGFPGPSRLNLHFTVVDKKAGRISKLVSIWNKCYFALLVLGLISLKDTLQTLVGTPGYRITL
MT1-MMP act inh – MT1-MMP (human) activation inhibition | P50281 | GFP/RFP ratio change, % at 20 µM | 0.061% of 360,000 active | HT1080 RFP-PRO-GFP cells, GFP/RFP ratio fluorescence, overnight; percent of plate control window, DMSO zero;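 active = GFP/RFP ratio change of at least 30% with cell ATP level not reduced by more than half and red fluorescence within 50% of control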; also: strong numbers were not always called active
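Assay system: HT1080 cells carrying an RFP-PRO-GFP reporter | Dosing: Single dose of 20 µM compound, 1% DMSO final | Incubation: Cells overnight before dosing, compound overnight, 37 °C, 5% CO2 | Evaluation: GFP/RFP fluorescence ratio | Control set: DMSO and RFP-L50D-GFP cell wells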
UUG fidelity – yeast start codon fidelity modulation. 0.13% of 350,000 active. activity score, % at 18.7 µM. S. cerevisiae UUG-firefly luciferase reporter, luminescence/redox ratio;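 active = replicate mean at a twofold rise or more, about +100% in these data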;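 also: firefly luciferase made from a UUG start codon reports start codon fidelity; reporter light over untreated wells divided by growth signal over untreated wells; some hits fall short of that in this replicate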
eIF4H inh – inhibitors of RNA binding by human eIF4H | 0.94% of 290,000 active | AID 2012 | inhibition, % at 35 µM | Q15056 | eIF4H fluorescence polarization binding assay;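 active = 50% or more with normal probe brightness, or confirmed in later tests; inconclusive = above 50% with abnormal brightness, or retests that disagree; inactive = below 50% or failed in later tests; about a fifth of its hits are not listed in these tables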;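 also: calls also rest on retests at 20 µM and on dose response follow-up; 0% = protein and probe with vehicle and 100% = probe without protein; strong numbers were not always called active; many hits fall short of the cut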
PABP polyA inh – blocks human PABP binding to poly(A) RNA. P11940. fluorescence polarization. inhibition, % at 35 µM. 1% of 290,000 active. AID 2014;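 active = 50% or more with normal probe brightness, or confirmed in later tests; inconclusive = above 50% with abnormal brightness, or retests that disagree; inactive = below 50% or failed in later tests; about a fifth of its hits are not listed in these tables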;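 also: calls also rest on retests at 20 µM and on dose response follow-up; controls were probe without protein and protein plus probe with vehicle; some compounds called inactive have numbers as strong as hits; many hits fall short of the cut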
eIF4H inh retest – second read-out of eIF4H inh, no call of its own (marks repeat the call); inhibition, %; compound at 20 µM; confirmation average;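 mean of two retest wells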
PABP polyA inh retest – also measured in PABP polyA inh; calls as there; inhibition, %; compound at 20 µM; confirmation repeats;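 mean of two retest wells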
MT1-MMP act inh RFP – second read-out of MT1-MMP act inh, no call of its own (marks repeat the call); RFP signal change, %; measured here: RFP expression control read;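 0 = vehicle wells; hits needed this value within 50% of zero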
* = called active by the depositor; i = inactive; ? = inconclusive; . = not tested or not shown. Only part of the results is shown; count on the stated rates, not on these rows.

SMILES	CSC inhib	HIV Env fusion	Rce1 inh	MT1-MMP act inh	MT1-MMP act inh RFP	UUG fidelity	eIF4H inh	PABP polyA inh	others
CCc1nc2c(OCc3ccc(C#N)cc3)cccn2c1N(C)C(=O)c1cccs1	.	35	.	-4	-2	-12	.	.
O=C(CCCc1ccccc1)Nc1ccccn1	8	11	i	4	2	-11	1	52*
Cc1ccc(S(=O)(=O)NCCNS(=O)(=O)c2ccccc2Br)cc1	.	-31	.	4	3	-23	.	.
CCOC(=O)C1=C(c2ccccc2)NC(SCC(=O)Nc2ccc(C)cc2)=C(C#N)C1c1ccco1 (stereo unspecified)	6	.	i	-28	-39	1	11	12
O=C(COc1ccc([N+](=O)[O-])cc1Cl)Nn1cnnc1	-9	5	i	7	8	-15	1	6
Cc1cc([N+](=O)[O-])nn1CC(=O)Nc1ccc(Cl)cn1	-10	11	i	-1	-2	.	-4	8
C[C@]12CC[C@H](O)CC1=CCC1C2CC[C@@]2(C)C1CC[C@@H]2NC(=O)CCC(=O)O (stereo partly specified)	8	18	.	2	5	8	.	.
O=C(C1=C[C@@H](c2ccc(Br)cc2)C[C@@H](OCc2ccc(CO)cc2)O1)N1CCN(Cc2ccc3c(c2)OCO3)CC1	43	.	i	-5	-11	11	72	38	eIF4H inh retest=-4;PABP polyA inh retest=9
CCN(c1ccccc1)P(=O)(Nc1ccccc1)Nc1ccccc1	-7	15	i	2	8	.	-5	0
COc1ccc(CCCC(=O)NCC(=O)N/N=C/c2cc(Cl)ccc2OC)cc1	.	.	i	0	2	-11	8	3
O=C(NC(=S)Nc1ccc(N2CCCC2)cc1)c1ccc(F)cc1	-4	-9	i	1	0	-21	-12	5
O=S(=O)(NC1=NCCC1)c1cccs1	-10	13	i	3	4	-20	-3	12
NC(=O)c1nsc(C(=O)N(c2ccc(Cl)cc2)C(C(=O)NCC2CCCO2)c2cccs2)c1N (stereo unspecified)	-7	46	i	-3	-8	-3	-1	-5
CCOc1ccc(S(=O)(=O)NCc2ccccn2)cc1NC(=O)c1ccccc1F	53	6	i	11	-5	-15	6	5
COc1ccc(Cl)cc1Nc1cc(C)nc2ncnn12	.	i	.	0	4	-7	.	.
Cc1cccc(-n2ncc3c(NCCCn4ccnc4)ncnc32)c1	14	-13	i	-8	-1	-16	-9	-23
Cc1cc(OCC(=O)N2CCOCC2)ccc1[N+](=O)[O-]	0	-17	i	0	2	-11	-1	-11
Clc1ccc(N=c2ssnc2Cl)cc1	11	?	i	-1	-6	-30	-9	13
COc1cccc(C(=O)c2c[nH]c(C(=O)NCCCN(C)C)c2)c1	-8	15	i	2	3	-12	-1	5
COc1cc(NS(=O)(=O)c2ccc(NC(=O)/C=C/c3ccc([N+](=O)[O-])cc3)cc2)ncn1	-8	11	i	3	-6	.	-4	-9
O=C(Nc1ccc(Br)cc1)c1cc(S(=O)(=O)Nc2ccccn2)ccc1Cl	1	8	i	0	-1	-22	4	-1
O=C(COC(=O)Cc1cccs1)Nc1ccc(F)c(F)c1F	13	12	i	-3	0	-10	8	-5
O=C(NCCc1nc2ccccc2[nH]1)/C(=C/c1ccc2c(c1)OCO2)NC(=O)c1ccccc1	1	-4	i	-1	2	-12	-6	-3
COCCNC(=O)C(=O)NCC1OCCN1C(=O)c1ccc(Cl)cc1 (stereo unspecified)	-4	11	i	-1	6	9	-1	7
CCOC(=O)C1(Cc2ccc(Cl)cc2)CCN(Cc2nccn2CC)CC1	-4	16	i	-4	-3	-21	1	-5
The listing continues:
SMILES	CSC inhib	HIV Env fusion	Rce1 inh	MT1-MMP act inh	MT1-MMP act inh RFP	UUG fidelity	eIF4H inh	PABP polyA inh	others
COc1ccccc1NC(=O)N1CCCC1C(=O)NCc1ccccc1Cl (stereo unspecified)	-35	10	i	4	3	-20	-7	2
N#C/C(=C/c1ccc(CNC(=O)C(=O)Nc2cc(Cl)cc(Cl)c2)o1)C(=O)NCc1cccnc1	52	-2	i	-2	0	.	1	0
CN=C(C)/C(C(=O)OC)=C(/O)c1ccc(Cl)cc1Cl	-5	15	i	0	-1	.	-10	-1
COc1cc(CO)ccc1Oc1nnnn1-c1ccc(C(N)=O)cc1	-5	.	i	-4	-6	4	-7	-1
CCc1noc(C)c1C(=O)Nc1nc(-c2ccc(OC)c(OC)c2)cs1	0	7	i	-3	-18	.	.	.
COc1cc(C(=O)O/N=C2/C=C(C)C(=O)C=C2C)cc(OC)c1OC	2	11	i	-6	2	.	-6	2
Cc1cc(NC(=O)c2cnn3cccnc23)nn1CC(=O)Nc1cccnc1	-3	.	i	6	7	-16	0	11
Cc1cc2c(OCC(O)CNCc3ccco3)cccc2[nH]1 (stereo unspecified)	-9	-10	i	1	2	-1	3	1
COc1ccc(OC)c(S(=O)(=O)N2CCN(c3ccccc3OC)CC2)c1	0	-1	i	1	1	4	1	5
COc1ccc(CCNC(=O)CSc2nnc(Cc3cccn3C)n2C)cc1OC	-2	10	i	-3	3	.	2	0
COCCNC(=O)c1ccc(CN2CCOCC2)cc1	-12	.	i	-1	0	-20	6	5
O=c1[nH]c(CSc2nc3ccccc3s2)nc2ccccc12	-18	-4	i	1	-3	-29	-4	-7
Cc1cc(C)n2nc(C(=O)OCC(=O)N(C)CC(=O)Nc3ccc(F)cc3)nc2n1	6	.	.	0	3	-11	.	.
CC1(C)C([N+](=O)[O-])C(c2ccccc2O)NC(c2ccccc2O)C1[N+](=O)[O-] (stereo unspecified)	2	3	i	1	1	.	-6	3
N#CCSCC(=O)Nc1ccc(F)cc1	-13	.	i	-5	2	-16	-10	-8
S=C(NCCC1=CCCCC1)Nc1ccccc1	8	.	i	5	-5	-20	-4	-9
CC(C)C[C@H](NC(=O)N1CC(=O)Nc2ccccc21)C(=O)N[C@H](Cc1c[nH]c2ccccc12)C(=O)O	-6	.	.	3	6	7	-9	8
O=C(Nc1nnc([C@@H]2C[C@H](O)[C@@H](CO)O2)s1)Nc1ccc(F)cc1F	.	-18	.	0	-4	-19	.	.
C/C(=N\OCc1ccc(C#N)cc1)c1ccc(S(=O)(=O)N(C)C)cc1	-10	-6	i	-1	-6	-3	2	-3
CC1(C2(O)CCCCC2)NCCc2ccccc21 (stereo unspecified)	.	4	.	12	-3	-2	.	.
COc1cccc(NC(=O)CSc2nnc(-c3ccoc3C)n2C)c1	-16	-8	.	0	0	-17	-7	12
Cc1ccc(NC(=O)OCc2ccccc2S(C)=O)cc1 (stereo unspecified)	1	-3	i	3	4	.	0	-3
CCN(CC)CCCOc1ccc(C)cc1Br	12	.	i	-4	-6	-8	-8	5
CC1(C(=O)NS(=O)(=O)C2CC2)CCN(C(=O)c2cc3ccccc3s2)C1 (stereo unspecified)	.	-11	.	-2	3	14	.	.
O=C(Nc1cccc(S(=O)(=O)NC2=NCCC2)c1)C1CCCCC1	-17	5	i	4	3	-14	-6	-5

Sorted by SMILES length (falling): part of the list above
SMILES	CSC inhib	HIV Env fusion	Rce1 inh	MT1-MMP act inh	MT1-MMP act inh RFP	UUG fidelity	eIF4H inh	PABP polyA inh	others
N#C/C(=C/c1ccc(CNC(=O)C(=O)Nc2cc(Cl)cc(Cl)c2)o1)C(=O)NCc1cccnc1	52	-2	i	-2	0	.	1	0
CC1(C)C([N+](=O)[O-])C(c2ccccc2O)NC(c2ccccc2O)C1[N+](=O)[O-] (stereo unspecified)	2	3	i	1	1	.	-6	3
Cc1cc(C)n2nc(C(=O)OCC(=O)N(C)CC(=O)Nc3ccc(F)cc3)nc2n1	6	.	.	0	3	-11	.	.
CC1(C(=O)NS(=O)(=O)C2CC2)CCN(C(=O)c2cc3ccccc3s2)C1 (stereo unspecified)	.	-11	.	-2	3	14	.	.
COc1cc(C(=O)O/N=C2/C=C(C)C(=O)C=C2C)cc(OC)c1OC	2	11	i	-6	2	.	-6	2
COc1ccc(OC)c(S(=O)(=O)N2CCN(c3ccccc3OC)CC2)c1	0	-1	i	1	1	4	1	5
CCc1noc(C)c1C(=O)Nc1nc(-c2ccc(OC)c(OC)c2)cs1	0	7	i	-3	-18	.	.	.
COc1ccc(CCNC(=O)CSc2nnc(Cc3cccn3C)n2C)cc1OC	-2	10	i	-3	3	.	2	0
COc1ccccc1NC(=O)N1CCCC1C(=O)NCc1ccccc1Cl (stereo unspecified)	-35	10	i	4	3	-20	-7	2
COc1cc(CO)ccc1Oc1nnnn1-c1ccc(C(N)=O)cc1	-5	.	i	-4	-6	4	-7	-1
O=c1[nH]c(CSc2nc3ccccc3s2)nc2ccccc12	-18	-4	i	1	-3	-29	-4	-7
CC1(C2(O)CCCCC2)NCCc2ccccc21 (stereo unspecified)	.	4	.	12	-3	-2	.	.
S=C(NCCC1=CCCCC1)Nc1ccccc1	8	.	i	5	-5	-20	-4	-9

Carrying on:
SMILES	CSC inhib	HIV Env fusion	Rce1 inh	MT1-MMP act inh	MT1-MMP act inh RFP	UUG fidelity	eIF4H inh	PABP polyA inh	others
NC(=S)Nc1cccc(-c2n[nH]c(=S)o2)c1	-11	0	i	-1	-3	.	-3	4
Cc1cccc(C)c1-n1c(C)cc(/C=C2\C(=O)NN(c3ccccc3)C2=O)c1C	6	-73	i	-2	-9	-7	2	7
Cn1c(NCc2ccccc2F)nc2cc(-c3cccc(Cl)c3)sc2c1=O	.	7	.	2	-9	-15	.	.
O=C(NCCCN1CCCC1=O)Nc1ccc(Br)cc1Cl	1	-3	i	1	1	-13	-12	-9
CCn1c(=S)[nH]c2sc3c(c2c1=O)CCCCC3	53	-34	i	3	5	.	-3	-2
COC(=O)c1cccc(NC(=O)NC(=O)c2ccc(Cl)cc2)c1	32	-9	i	-3	-3	7	-4	19
COC(=O)c1ccc(C2NCCc3cc(OC)c(OC)cc32)cc1 (stereo unspecified)	-14	-10	i	-3	2	-10	1	4
Cc1cccc(C(C)C)c1NC(=O)COC(=O)CCN1C(=O)C2CC=CCC2C1=O (stereo unspecified)	0	4	i	-1	2	-9	3	-4
COc1ccc(NC(=O)C2=CC(c3ccco3)=NS(=O)(=O)N2C)cc1OC	-2	-21	i	-1	0	-10	-13	-5
Cc1ccc(Cl)cc1N1CCN(C(=O)Cc2c(C(=O)O)[nH]c3ccc(Cl)cc23)CC1	.	-4	i	15	10	.	7	-5
CCCN(CCO)Cc1ccc(Br)cc1	2	.	i	4	3	-13	6	6
CCOC(=O)N1CCC(N2CCN(S(=O)(=O)c3ccc(OC)cc3)CC2)CC1	-4	?	i	2	-3	.	19	4
CC1(C)Cc2c(sc(NC(=O)Nc3ccccc3)c2C(N)=O)CO1	-23	-30	i	-1	-4	-5	-6	-7
COc1ccc(C2=C(C=O)Cc3ccccc3O2)cc1	15	-25	i	-3	-7	.	.	.
CCC(=O)Nc1cccc(C2=NN(c3ccccc3)C(c3ccc(OC)cc3)C2)c1 (stereo unspecified)	45	9	i	-1	1	-7	1	9
CCOC(=O)CN1C(=O)C(CC)Oc2ccccc21 (stereo unspecified)	-4	.	i	4	6	-36	-6	-4
CC1(C)CC(=O)C2=C(C1)OC(N)=C(C#N)C2c1ccoc1 (stereo unspecified)	-1	5	i	-3	4	.	6	-2
CC(=O)c1ccc(NC(=O)COC(=O)CCN2C(=O)c3cccc([N+](=O)[O-])c3C2=O)cc1	-13	23	i	0	-1	.	2	2

Compound activity (PubChem BioAssay)
